Vaccinia mCherry = qHTS for Stage-Specific Inhibitors of Vaccinia Orthopoxvirus: mCherry Reporter Primary qHTS; Vaccinia virus mCherry reporter infection, fluorescence; about a quarter of the inactives have no number; Potency, µM (highest dose often 36.5 µM), without a hit: at the top dose activity change, negative = inhibition, actives largely listed as inhibitors; 310,000 compounds, 0.63% hits; active = well fitted inhibition curve with a large enough effect; inconclusive = small, poorly fitted or top-dose-only effect; inactive = no such curve, though single readings can be large or run the other way; tested in A549 cells; also: nearly all actives have a fitted effect of over 35% in size; inactives centre near -10
VACV Venus inh = qHTS for Stage-Specific Inhibitors of Vaccinia Orthopoxvirus: Venus Reporter Primary qHTS; 330,000 compounds, 0.46% hits; Potency, µM (titrated, usually from 36.5 µM), without a hit: at the top dose activity change, negative = inhibition, actives largely listed as inhibitors; AID 720580, 2013; Vaccinia virus Venus reporter expression, fluorescence; active means well fitted inhibition curve with a large enough effect; inconclusive means small, poorly fitted or top-dose-only effect; inactive means no such curve, though single readings can be large or run the other way; tested in A549 cells; also: nearly all actives have a fitted effect of over 30% in size; inactives centre near -10
An asterisk follows results filed as active; i = inactive; ? = inconclusive; · = no result given; [ ] = another dose, or the depositor's remark. % is scaled to controls: 0 for no effect and ±100 for the full control effect; potency is read from the fitted curve at half-maximal effect.

Below each compound – Vaccinia mCherry	VACV Venus inh
O=C(CN(Cc1ccccc1Cl)C(=O)c1csnn1)NCCc1ccccc1
 : 0%	-3%
COCCOC(=O)C1=C(C)NC(=O)NC1c1ccc(-c2cc(Cl)ccc2Cl)o1 (stereo not given)
 : -2%	-9%
CCC1(CC)C(=O)NN(c2ccccc2)C1=O
 : ·	-4%
COc1cccc(CNC(=O)c2ccc(NC3=NC4CS(=O)(=O)CC4S3)cc2)c1 (stereo not given)
 : -6%[7.34 µM]	-16%[7.34 µM]
O=C(CNC(=O)N1CC(=O)Nc2ccccc21)Nc1ccc(Br)cc1F
 : i	-10%
CCOC(=O)CSc1nc2cc3c(cc2c(=O)n1CCCC(=O)NCc1ccc2c(c1)OCO2)OCO3
 : -13%	-12%
Cc1c(CNCc2cccs2)c(C(=O)O)c(C)n1Cc1ccccc1
 : ·	-16%
N#Cc1ccc(-c2ccccc2)nc1SCC(=O)c1cccc(Cl)c1
 : -12%	-6%
COc1cccc(-c2nc(SCc3ccc(C)cc3)n3[nH]c(=O)cc3n2)c1
 : -4%	-8%
CCc1nc2cc(C(=O)NCC3CCS(=O)(=O)C3)cc(NC(=O)c3ccccc3OC)c2n1C (stereo not given)
 : i	-11%
COc1ccc(-c2nc(=S)c3c(n2Cc2cccnc2)CC(C)(C)OC3)cc1
 : i	-3%
O=C(Nc1ccc(Cl)cc1)C1=Cc2ccccc2OC1
 : -22%[1.46 µM]	?
CCCS(=O)(=O)c1c(S(=O)(=O)CCC)c2ccc(C(N)=O)cn2c1C(=O)c1ccc(OC)cc1
 : i	-1%
O=c1cc(-c2ccccc2Cl)oc2c(Br)ccc(O)c12
 : -5%	-15%
CCOC(=O)CN(C(=O)CNC(=O)c1ccco1)C(C(=O)NC1CCCCC1)c1cccs1 (stereo not given)
 : -12%	-9%
COc1cccc(C(C)(O)c2nc(-c3ccc(S(C)(=O)=O)cc3)cs2)c1 (stereo not given)
 : 9%	-10%
O=C(NN=Cc1ccc2c(c1)OCO2)c1ccncc1
 : -17%	-12%
COc1ccc(NC(=O)COC(=O)Cc2cccs2)cc1Cl
 : i	-19%
O=[N+]([O-])c1ccc(CNc2cccc(Cl)c2)s1
 : -19%	-11%
CN1CCN(C(=S)c2ccc([N+](=O)[O-])cc2)CC1
 : -11%	4%
CC(C)Sc1ccccc1C(=O)Nc1ccc2c(c1)n(C)c(=O)n2C
 : -22%	-15%
O=C(O)C(c1ccccc1)C(O)c1ccc2c(c1)OCO2 (stereo not given)
 : i	3%
Cc1cc(OCC(=O)OC(C)C)c2c3c(c(=O)oc2c1)CCCC3
 : ·	-11%
Cc1ccc(S(=O)(=O)NC(=O)C2(C)CCN2C(=O)c2ccccc2)nc1 (stereo not given)
 : 26%	-13%
CCN(CC)c1ccc(N)cc1S(=O)(=O)Nc1ccc(OC)cc1
 : ?	-5%
Cc1ccc(C(=O)OCC(=O)NCCNC(=O)COC(=O)c2ccc(C)o2)o1
 : -8%	-10%
CCCc1cc(=O)oc2cc(C)cc(OC(C)C(=O)NCC3CCC(C(=O)O)CC3)c12 (stereo not given)
 : 40%[activator]	7%
O=C(/C=C/c1ccc(N2CCCCC2)c([N+](=O)[O-])c1)c1ccc(O)cc1
 : ?	-17%
CCn1c(SCC(=O)C(C)(C)C)nnc1-c1cccnc1
 : i	-6%
Fc1ccc(Nc2ccc3ccccc3n2)c(F)c1
 : -15%	-28%
CCN(CCCNC(=O)C1CCC(=O)N1Cc1ccc(F)cc1)c1cccc(C)c1 (stereo not given)
 : -15%[1.46 µM]	-25%
CCCNC(=O)c1ccc2c(=O)c(O)c(-c3cccc(Br)c3)[nH]c2c1
 : ?	?
CCN(CC)CCn1c(-c2ccc(C)cc2)nc(=S)c2c1CC(C)(C)OC2
 : -15%	-1%
Cc1ccc2c(c1)C1CN(C)CCC1N2C(=O)c1cccc(S(=O)(=O)N(C)C)c1 (stereo not given)
 : -13%	-4%
NS(=O)(=O)c1ccc(CCNC(=O)CSc2ncnc3ccccc23)cc1
 : -2%	-13%
Cc1ccc(-c2cc3nc(C)cc(N4CCN(C(=O)c5ccoc5)CC4)n3n2)cc1
 : -17%	-21%
CC(Sc1nnc(-c2cccnc2)n1N)C(=O)NCCC1=CCCCC1 (stereo not given)
 : -17%	-13%
CCCCOc1cccc(C(=O)Nc2ccc(N3CCN(CC)CC3)cc2)c1
 : -24%	-23%
COc1ccc(CCNC(=O)CCc2ccc(S(=O)(=O)NC(C)C)cc2)cc1
 : i	-11%
COc1cc(OC)cc(-n2nnc(-c3nc(-c4ccccc4Cl)no3)c2N)c1
 : -10%	-2%
COc1ccc(C)c(Cn2c(-c3nonc3N)nc3ccccc32)c1
 : ?	-28%
Cc1ccc(S(=O)(=O)N2CCN(C(=S)NCc3ccc4c(c3)OCO4)CC2)cc1
 : -5%	-19%
O=C(Cn1cc(S(=O)(=O)N2CCCC2)c(S(=O)(=O)N2CCCC2)c1)NCc1ccco1
 : i	-13%
O=C(CN(C(=O)CNC(=O)c1ccco1)c1ccc(F)cc1)NC1CCCCC1
 : -12%	-5%
CC1=Nc2ccccc2N=C(NC(=O)CSc2nnnn2-c2ccccc2)C1c1ccccc1 (stereo not given)
 : ·	-24%
COCC#Cc1ccc2c(c1)O[C@@H](CN(C)C(=O)Nc1ccc(OC)cc1)[C@H](C)CN([C@H](C)CO)S2(=O)=O
 : -28%	-9%
COc1ccc(N(C)C(=O)c2ccc(NC(=O)CCS(=O)(=O)c3cccs3)cc2)cc1
 : -26%	-12%
Cc1nc2ccc(NC(=O)c3nn(CC(C)C)c(=O)c4ccccc34)cc2s1
 : ?	-29%
COc1ccc(NC(=O)CCCn2c(=O)c3cccn3c3cccnc32)cc1Cl
 : -21%	-12%
Cc1ccc(S(=O)(=O)N2CCCN(C(=O)c3ccc(-n4nccc4C)cc3)CC2)cc1
 : 0%	4%
O=C(C1=C[C@H](c2ccccc2)C[C@H](OCCCCO)O1)N1CCN(Cc2ccccc2)CC1
 : -9%	-19%
CS(=O)(=O)c1cccc(C(=O)Nc2nnc(C3=COCCO3)o2)c1
 : 2%	-7%
O=C(NCCCn1ccnc1)c1cn(Cc2ccc(F)cc2)nn1
 : i	-9%
CCCSc1nc2c(c(=O)[nH]c(=O)n2C)n1CC(O)COc1ccccc1 (stereo not given)
 : ?	-19%
O=c1[nH]c2ccccc2n1C1CCCCC1
 : -7%	-2%
Cc1cc(N)nc(=O)n1C1CC(O)C(CO)O1 (stereo not given)
 : -5%	-1%
C=CCSC1=N/C(=C\c2cc(OC)c3c(c2)OCO3)C(=O)S1
 : ·	-10%
OCCNc1ncnc2c1ncn2[C@H]1CN(Cc2ccc(Cl)cc2)C[C@@H](CO)O1
 : -5%	0%
CC(=O)OC1CC[C@@]2(C)C(CC[C@@]3(C)C2CC=C2C4CC(C)(C)CC[C@]4(C)CC[C@@]23C)C1(C)C (stereo not given in full)
 : -9%	-9%
C=CCn1c(SCC(=O)Nc2c(C)n(C)n(-c3ccccc3)c2=O)nc2sc(C)c(-c3ccccc3)c2c1=O
 : -1%	-13%

Single entries from the entries so far:
In Vaccinia mCherry, NS(=O)(=O)c1ccc(CCNC(=O)CSc2ncnc3ccccc23)cc1 is entered as -2%
In VACV Venus inh, CCn1c(SCC(=O)C(C)(C)C)nnc1-c1cccnc1 is entered as -6%
In VACV Venus inh, O=C(CNC(=O)N1CC(=O)Nc2ccccc21)Nc1ccc(Br)cc1F is entered as -10%

Remaining list, next part
Below each compound – Vaccinia mCherry	VACV Venus inh
CCOc1ccc(CN(C)C(=O)CNC(=O)c2ccccc2)cc1
 : -8%	-1%
Fc1cccc(Cc2c(-c3ccco3)nc3ccc(Cl)cn23)c1
 : 15%	1%
COc1cc(C(=O)OCCCN(C)C)cc(OC)c1OC
 : -3%	-7%
Cc1cc(NC(=O)c2ccc([N+](=O)[O-])cc2)no1
 : -10%	-8%
Cc1cc(CN(C)C(=O)c2cc(COc3ccc4ncccc4c3)on2)on1
 : -3%	-14%
Oc1ccc(N=Cc2cc(Br)c(N3CCOCC3)o2)cc1
 : -3%	-3%
Cc1ccc(NC(=O)CN(C)C(=O)COC(=O)C(C)(C)Oc2ccc(Cl)cc2)cc1
 : i	-2%
O=C(NCC(=O)N1CCN(c2ccc([N+](=O)[O-])cc2)CC1)c1ccco1
 : i	-22%
CC1CCCCC12NC(=O)N(CC(=O)Nc1ccccc1F)C2=O (stereo not given)
 : i	-17%
COCCNC(=O)C1(C)CCCN(Cc2csc3ccccc23)C1 (stereo not given)
 : 2%	7%
O=C(CCCc1nc2ccccc2s1)NCc1cccnc1
 : i	12%
CCC1(c2ccc(OC)cc2)NC(=O)N(CC(=O)N2CCc3ccccc32)C1=O (stereo not given)
 : -8%	-17%
COC(=O)C1CCN(c2cc(=O)n(-c3ccc(OC)cc3)c(=O)[nH]2)CC1
 : 2%	2%
Cc1[nH]c2ccccc2c1C(c1c(C)[nH]c2ccccc12)c1c(C)[nH]c2ccccc12
 : 13%	27%
COc1ccc(CCNC(=O)Cc2c(C)c3c(cc(C)c4c(C)c(C)oc43)oc2=O)cc1OC
 : -6%	-5%
COc1ccc(C(=O)OCn2nnc3ccccc3c2=O)cc1OC
 : 4%	15%
O=S(=O)(c1cc(Cl)ccc1Cl)n1cccn1
 : -9%	-11%
COc1cc2oc(=O)ccc2cc1[C@@H](O)[C@@H]1OC(C)(C)OC1(C)C
 : i	1%
CC(=O)Nc1ccc(NC(=O)CCCc2c[nH]c3ccccc23)cc1
 : -10%	-4%
COc1cc(OC)nc(Nc2nc(C(N)CCc3ccccc3)cs2)n1 (stereo not given)
 : ?	-23%
Cc1cccc(-c2cc(NCCc3cccnc3)n3nccc3n2)c1
 : -14%	11%
CN(C)c1ncnc2c1ncn2[C@H]1CN(Cc2ccc(Cl)cc2)C[C@@H](CO)O1
 : -5%	4%
COC(=O)CN(Cc1ccco1)S(=O)(=O)c1ccccc1
 : i	-9%
COCc1cc(C)nc2sc3c(=O)oc(C)nc3c12
 : i	-1%
CC1CC(C)CN(CCCNC(=O)c2ccc3c(c2)NC(=O)C(N2CCCCC2)S3)C1 (stereo not given)
 : ·	-29%
CCOC(=O)N1CCC(NC(=O)c2ccc3c(c2)sc2nc(-c4ccccc4)cn23)CC1
 : ?	?
C=CCNC(=O)C1CC(=O)N(c2ccc(OCc3ccccc3Cl)cc2)C1 (stereo not given)
 : i	-19%
Cc1ccccc1NC(=S)N(CCCN1CCOCC1)Cc1ccccn1
 : -6%	5%
CCOC(=O)C1(CCOc2ccccc2)CCN(Cc2cccc(OC)c2OC)CC1
 : -5%	-15%
O=C(CCC1CCCN(C(=O)c2ccccc2Cl)C1)N1CCN(c2ccccn2)CC1 (stereo not given)
 : -3%	-10%
Cc1ccc(-c2nn(-c3ccccc3)cc2C=C2SC(=S)N(CCS(=O)(=O)O)C2=O)cc1
 : -2%	-14%
O=C(CSc1ccc2nnc(CCNC(=O)c3ccccc3)n2n1)NCc1ccccc1
 : i	-15%
CC1=C(C(=O)OCc2ccccc2)C(c2ccc3ccccc3c2)NC(=O)N1CCCC(=O)O (stereo not given)
 : -6%	-3%
CCc1nc2ccc(C(=O)NCCc3ccccn3)cn2c1N(CC)Cc1cccc(Br)c1
 : 9%	-22%
CCCOc1ccc2c(CC)cc(=O)oc2c1C
 : -18%	-26%
COc1ccc(-c2ccc(-c3cc(=O)oc4c(C(C)C)ccc(C)c34)cc2)cc1
 : i	0%
CCOCCCNC(=O)C1CCN(S(=O)(=O)c2cc(Br)cc3c2N(C(=O)CC)CC3)CC1
 : -13%	0%
COc1ccc(S(=O)(=O)NC(C)C(=O)O)cc1 (stereo not given)
 : -3%	-1%
C=CCN1C(=O)c2ccc(C(=O)Nc3ccccn3)cc2C1=O
 : -12%	-7%
COc1cc(C(=O)NCc2nnc(SCC(=O)N3CCc4ccccc43)o2)cc(OC)c1OC
 : -3%	12%
CC/C(C)=N/NC(=O)c1[nH]c2ccc(C)cc2c1-c1ccccc1
 : ?	-27%
COc1cccc(C(=O)N2CCC[C@H]2C(=O)N2CCC[C@H]2C(=O)NCc2ccncc2)c1
 : 0%	11%
COc1ccc(-c2noc(CCC(=O)NCc3ccc(C)cc3)n2)cc1
 : 4%	15%
COc1ccc(N2CCN(C(=O)c3cccc(-n4c(C)nc5cccnc54)c3)CC2)cc1
 : -11%	-8%
COC(=O)N/N=C/c1ccc(/C=N/NC(=O)OC)cc1
 : -9%	-1%
CCCc1nnc(NC(=O)c2cccc(OC)c2)s1
 : -14%	-9%

Rewritten as labelled records: entries from further up
> CCc1nc2ccc(C(=O)NCCc3ccccn3)cn2c1N(CC)Cc1cccc(Br)c1
  Vaccinia mCherry = 9%
  VACV Venus inh = -22%
> CCOCCCNC(=O)C1CCN(S(=O)(=O)c2cc(Br)cc3c2N(C(=O)CC)CC3)CC1
  Vaccinia mCherry = -13%
  VACV Venus inh = 0%
> CCCc1nnc(NC(=O)c2cccc(OC)c2)s1
  Vaccinia mCherry = -14%
  VACV Venus inh = -9%
> COc1ccc(-c2ccc(-c3cc(=O)oc4c(C(C)C)ccc(C)c34)cc2)cc1
  Vaccinia mCherry = i
  VACV Venus inh = 0%

From PubChem BioAssay
